Bioassay records from PubChem.
HNF4A DNA FP = change in binding of human HNF4A to DNA, primary screen, biochemical, fluorescence polarization, FITC-DNA; Hepatocyte nuclear factor 4-alpha (Homo sapiens), P41235; 1 h; activity change, % at 10 µM; 0.3% of 360,000 active; AID 1224865, 2016; in the data active = activity change above about 30%, passing the limit was not always enough;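 note: controls were the assay level and a saturating level of protein; the project sought stronger binding though the title names inhibitors; some compounds called inactive have numbers as strong as hits; positive values seem to mean higher polarization but the record does not say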
Ecoli growth = E. coli growth inhibition, primary screen, OD600. Escherichia coli growth, 23 h; stronger effect = lower value. OD600 absorbance (concentration not given with the values). 0.21% of 330,000 active. AID 1053175, 2014;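 active = OD600 absorbance below the run mean of sample wells minus 3.6 SD, in any replicate, cut at about 0.56 in these data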;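 note: stock transfer was 300 nL into about 60 µL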
LANA-H2A inh = blockers of LANA interaction with H2A/H2B – biochemical, FP readout, HTS, primary screen | cell-free LANA-H2A/H2B peptide, fluorescence polarization | inhibition, % (no concentration beside the values) | 0.6% of 320,000 active | Protein LANA1 (Human herpesvirus 8 type P (isolate GK18)), Q9QR71; in the data active = inhibition mostly above about 10%, no sharp cut-off; inactive = mostly below about 6.7%;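 note: stock transfer was 7.5 nL into about 10 µL; 0% = median of vehicle wells and 100% = median of positive control wells; one replicate is shown; the record names a cut of 25% in any replicate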
UCH37 DUB inh = inhibitors of human UCH37 deubiquitinase, primary screen, biochemical, Ub-AMC cleavage, fluorescence; Ubiquitin carboxyl-terminal hydrolase isozyme L5 (Homo sapiens), Q9Y5K5; purified proteasome/UCH37; inhibition, % (concentration not given with the values); 0.33% of 330,000 active; AID 588478, 2011;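 active = mean of two replicates above 20%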;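 note: 0% = compound-free wells with enzyme and 100% = wells lacking proteasome; stock transfer was 100 nL into about 20 µL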
Target sequence (Q9Y5K5 whole entry, looked up): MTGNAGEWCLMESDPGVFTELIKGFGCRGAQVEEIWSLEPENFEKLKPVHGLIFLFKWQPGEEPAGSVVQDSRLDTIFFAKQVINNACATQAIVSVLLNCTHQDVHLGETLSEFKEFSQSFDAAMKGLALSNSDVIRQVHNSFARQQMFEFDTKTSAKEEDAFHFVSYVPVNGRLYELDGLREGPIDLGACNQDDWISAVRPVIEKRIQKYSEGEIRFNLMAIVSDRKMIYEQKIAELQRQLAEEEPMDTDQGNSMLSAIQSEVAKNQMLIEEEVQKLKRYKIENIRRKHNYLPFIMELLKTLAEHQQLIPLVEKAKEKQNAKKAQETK
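Signal – fluorescence, ex 355 nm, em 460 nm · System – Proteasome-bound UCH37 · Input – 0.15 nM proteasome as dispensed · Timing – 30 min preincubation with enzyme, 25 min cleavage at room temperature · Read-out basis – percent inhibition of cleavage signal versus uninhibited and no-proteasome wells · Medium – Tris-HCl pH 7.4 with ATP-MgCl2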
ALR H2O2 inh = inhibitors of human ALR sulfhydryl oxidase, primary screen, biochemical, H2O2 detection, HRP-luminol luminescence, single point | purified ALR, DTT oxidation | 3.8% of 290,000 active | FAD-linked sulfhydryl oxidase ALR (Homo sapiens), P55789 | AID 485317, 2010 | inhibition, % (no concentration beside the values);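 active = mean and each replicate at 75% or more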;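 note: stock transfer was 7.5 nL into about 7.5 µL; 0% = neutral wells and 100% = wells with inactivated enzyme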
FGF22 binding = binders of human FGF22 protein, primary screen, FGF22 synaptogenesis inhibitor project, biophysical, thermal shift, single point. calls only at 9.99 µM. recombinant FGF22 thermal shift, SYPRO orange fluorescence; percent of sucrose octasulfate shift, DMSO zero. Fibroblast growth factor 22 (Homo sapiens), Q9HCT0. 1.5% of 340,000 active. AID 651658, 2012;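 active = melting point raised past a set limit in the mean and every replicate; three in four hits are not shown here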
Target sequence (Q9HCT0 whole entry, looked up): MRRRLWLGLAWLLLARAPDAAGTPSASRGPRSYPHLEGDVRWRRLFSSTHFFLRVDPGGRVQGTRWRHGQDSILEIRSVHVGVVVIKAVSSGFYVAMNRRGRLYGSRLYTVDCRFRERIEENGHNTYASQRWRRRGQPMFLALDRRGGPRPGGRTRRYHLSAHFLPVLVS
Beta2AR agonist = beta2AR agonists driving receptor internalization, primary screen, cell-based, FAP fluorogen, flow cytometry; AID 504454, 2011; 0.43% of 340,000 active; response, % (no concentration beside the values); Am2.2-beta2AR cells; reference of the scale not given here;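 active = response above a set limit, near 3 SD of response in nonfluorescent compounds, cut at about 42% in these data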;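 note: stock transfer was 100 nL into about 11 µL; a reference agonist was the positive control; negative values mostly stem from fluorescent compounds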
Target sequence (P07550 whole entry, looked up): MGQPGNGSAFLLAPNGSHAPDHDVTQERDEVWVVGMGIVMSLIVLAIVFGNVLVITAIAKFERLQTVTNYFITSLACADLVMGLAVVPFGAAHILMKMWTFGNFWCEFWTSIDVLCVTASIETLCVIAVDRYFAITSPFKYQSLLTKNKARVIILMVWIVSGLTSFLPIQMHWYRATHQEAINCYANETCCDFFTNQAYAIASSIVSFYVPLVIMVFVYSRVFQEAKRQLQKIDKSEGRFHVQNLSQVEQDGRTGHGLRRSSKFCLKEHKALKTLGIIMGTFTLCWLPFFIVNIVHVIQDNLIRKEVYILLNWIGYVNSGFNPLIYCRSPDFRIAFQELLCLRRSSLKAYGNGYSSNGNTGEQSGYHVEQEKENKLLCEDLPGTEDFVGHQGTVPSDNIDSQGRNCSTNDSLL
Starred values were filed as active, the others as inactive; i = inactive; . = no result given.

SMILES	HNF4A DNA FP	Ecoli growth	LANA-H2A inh	UCH37 DUB inh	ALR H2O2 inh	FGF22 binding	Beta2AR agonist
COc1ccc(CCN(C)Cc2c(O)ccc3cc(Br)ccc23)cc1OC	3.5	0.667	-1.7	3.7	2.6	i	2.8
CN(/N=C\c1ccc(O)c(O)c1)c1nc(-c2ccccc2)cc(-c2ccccc2)n1	0.6	.	-8.0	.	51.0	.	10.5
COc1cccc(-c2coc3c(C)c4oc(=O)c(CC(=O)O)c(C)c4cc23)c1	5.1	0.666	-1.0	-8.5	.	i	3.9
CC12CN3CC(C)(CN(C1)C3c1ccc3c(c1)OCO3)C2O (centres undefined)	-1.4	0.674	-4.7	0.9	0.3	i	6.7
Cc1cc(=O)oc2c1c(C)nn2-c1nn[nH]n1	-1.1	0.661	-1.1	4.5	-4.3	.	2.1
COc1cc(C(=O)OCC(=O)N2CCC(Cc3ccccc3)CC2)cc(OC)c1OC	-0.5	0.71	4.7	-0.7	3.0	i	4.2
Cc1ccc(C(=O)OCC(=O)N2CCc3ccccc32)cc1	-1.2	0.734	4.4	0.4	-6.0	.	2.7
O=C(NCc1cccs1)c1ccc(CS(=O)Cc2cccc(Cl)c2)o1 (centres undefined)	-2.6	0.628	-3.6	0.0	2.0	i	2.0
CC(C)=CCCC(C)CN(C)CCc1ccccn1 (centres undefined)	2.5	0.66	-3.4	-1.7	4.3	.	0.4
CCCCOc1cccc(C(=O)Nc2ccc(NC(=O)c3ccco3)cc2)c1	-2.2	0.703	-0.1	-24.9	-6.2	i	68.6*
O=C(O)C1=C(OCc2ccc(F)c(F)c2)C(=O)NCC1	0.1	0.659	-2.0	-1.5	-4.0	i	-6.5
COc1cc2cnc(-c3ccccc3)c(-c3ccc([N+](=O)[O-])cc3)c2cc1OC	-3.2	0.76	-0.6	2.9	-8.6	i	-2.3
O=C(c1ccc(Cl)cc1)N1CCN(c2ccnc3cc(Cl)ccc23)CC1	1.4	0.679	.	3.3	.	i	-2.1
CN(C)c1ccc(C(C[N+](=O)[O-])c2c(N)n(C)c(=O)n(C)c2=O)c(F)c1C#N (centres undefined)	0.7	0.572	-0.5	-10.9	.	i	4.5
CN(C)S(=O)(=O)c1cccc(NC(=O)CSc2nc3ccccc3[nH]2)c1	-1.2	0.677	-4.0	2.1	10.5	i	-11.1
CSc1nnc(-c2ccc(C(F)(F)F)cn2)o1	-1.7	0.652	12.3*	4.8	-2.2	i	-3.5
COc1ccc(C(=O)C2CCCN(Cc3cnc(N4CCCC4)s3)C2)cc1OC (centres undefined)	3.9	0.683	-4.0	5.3	97.6*	i	5.4
CC1CC(C)(C)NC(=S)N1CC(=O)NCc1ccc(F)cc1 (centres undefined)	2.4	0.718	-1.8	5.1	.	i	-14.6
COC(=O)c1ccc(COC(=O)CCC(=O)c2cccs2)cc1	0.9	0.713	2.2	2.2	-13.2	i	6.1
O=C1CC(c2ccsc2)Sc2ccccc2N1 (centres undefined)	1.3	0.688	2.4	3.2	.	i	-3.3
CCCCN(Cc1cc2ccccc2[nH]c1=O)C(=O)c1ccccn1	0.7	0.728	-0.3	-1.2	6.1	.	-2.2
COc1ccc(/C=C(/C#N)C(=O)Nc2cccc([N+](=O)[O-])c2)cc1C(=O)O	1.1	.	1.9	0.3	97.2*	i	0.3
CCC1CCCCN1C(=O)CSc1nc2c(c(=O)n1C)SC(C)C2 (centres undefined)	6.7	0.718	-2.4	5.7	-9.0	i	-10.7
COc1ccccc1C1(CC(=O)N2CCOCC2)CCOC(C(C)C)C1 (centres undefined)	-3.2	0.697	-1.2	2.4	-5.6	.	2.1
CCOc1ccc(C2NC(=O)NC(C)=C2C(=O)OC)cc1C (centres undefined)	1.1	0.727	3.1	-3.0	-9.7	.	-3.0
CC12CCC(=O)N1C(C(=O)NCc1ccccc1Cl)CS2 (centres undefined)	-4.2	0.643	-2.0	2.3	-10.6	i	-7.5
C=CC1CN(C(=O)OCC(Cl)(Cl)Cl)C2CC3c4ccc(OC)cc4NC3C3CC1C2CO3 (centres undefined)	-4.6	0.758	-1.8	0.1	-0.1	.	.
CCOC(=O)Cc1nc(-c2ccccc2)n[nH]1	-6.3	0.656	1.8	1.7	0.9	i	0.7
O=Cc1ccc(C(=O)OCC(=O)NCCC2=CCCCC2)cc1	-3.4	0.668	-1.0	6.5	3.6	i	3.4
CCOC(=O)c1nc2c(ccc3ccccc32)cc1C	4.7	0.63	4.5	-47.8	3.7	i	-5.7
CS(=O)(=O)N1CCN(c2ccc(C(=O)NC3C4CC5CC(C4)CC3C5)cc2[N+](=O)[O-])CC1 (centres undefined)	2.5	0.732	-1.6	1.1	-11.6	.	-8.1
Cc1cc(C)nc(SCC(=O)NN)n1	4.6	0.671	0.6	4.1	12.3	i	-1.6
COc1ccc(C(=O)N2CCNC(=O)C2CC(=O)Nc2ccc(C)cc2)cc1 (centres undefined)	-0.5	0.698	-2.2	1.0	7.4	i	2.9
N#Cc1ccc(S(=O)(=O)N2CCN(CC(=O)NCC3(N4CCOCC4)CCCCC3)CC2)cc1	-13.5	0.718	0.9	0.1	-1.1	i	4.5
COc1cccc(C(=O)Nc2cccc(-c3nnc(-c4ccco4)o3)c2)c1	4.3	0.727	-3.3	0.0	-2.8	.	4.8
CC1=C(C(=O)Nc2ccccc2F)C(c2ccsc2)C2=C(CC(C)(C)CC2=O)N1 (centres undefined)	0.1	0.701	-2.4	-92.6	-6.2	i	-17.9
CCn1cc(C(=O)OCC(=O)NCc2ccccc2Cl)c(=O)c2ccc(C)nc21	-1.1	0.512*	2.3	3.3	9.2	i	-0.9
Clc1ccc(CON/C=N/c2ncnc3sccc23)cc1	-1.6	.	-2.4	.	.	.	-10.7
O=S(=O)(Nc1nc2ccccc2nc1NCc1ccco1)c1ccc(F)cc1	1.8	0.658	-4.8	-35.4	0.6	i	8.5
Cc1ccccc1Nc1cc(=O)oc2ccccc12	-3.3	.	0.0	.	9.6	.	0.7
CCCCN1C(=O)C(O)(CC(=O)c2ccccc2OC)c2ccccc21 (centres undefined)	0.5	0.729	-0.2	7.7	10.1	i	2.3
CCCN(CCC)C(=O)Nc1cc(Cl)ccc1OC	4.9	0.72	-4.2	1.0	2.9	i	-6.5
CCN(CCCNC(=O)CN(C)S(=O)(=O)c1cccc2nsnc12)c1ccccc1	-2.1	0.696	-1.2	1.2	95.3*	.	5.0
Cc1c(N=C2NN=C(c3c[nH]c4ccccc34)CS2)c(=O)n(-c2ccccc2)n1C	4.0	0.671	-2.0	-1.9	.	i	13.9
COc1ccc(CNC(=O)CN(Cc2ccc(F)cc2)C(=O)c2csnn2)cc1	1.1	0.679	0.0	3.6	.	i	1.3
CCOC(=O)C1Cn2c(nc3c(c2=O)C(C)(C)Cc2ccccc2-3)S1 (centres undefined)	1.1	0.709	0.3	-5.0	-5.7	.	-10.2
O=C(COC(=O)/C=C/c1ccccc1)Nc1cc(C(F)(F)F)ccc1N1CCOCC1	3.5	.	1.3	3.8	-11.0	i	1.8
Cc1ccc(-c2ccccc2NC(=O)C2C3C=CC(C3)C2C(=O)O)o1 (centres undefined)	1.7	0.719	-0.6	-1.6	-6.4	.	7.7
O=C(Cc1ccc(S(=O)(=O)N2CCOCC2)s1)N1CCN(S(=O)(=O)c2cccc(F)c2)CC1	-0.6	0.631	.	1.3	.	i	4.9
COC(=O)C1=CN(c2ccc(Cl)cc2)C=C(C(=O)OC)C1c1ccc([N+](=O)[O-])cc1	0.5	0.711	1.0	-0.4	-5.2	i	-10.6
(list continues)
SMILES	HNF4A DNA FP	Ecoli growth	LANA-H2A inh	UCH37 DUB inh	ALR H2O2 inh	FGF22 binding	Beta2AR agonist
Cc1oc2c(cc(NS(=O)(=O)c3ccc(C(C)C)cc3)c3ccccc32)c1C(=O)O	-71.0	.	26.2*	.	.	i	0.0
COCC(=O)Nc1cc(C)cn(Cc2ccccc2Cl)c1=O	4.7	0.612	1.1	3.7	-12.5	i	-2.8
Cc1ccccc1NC(=O)CCN1C(=O)c2ccccc2C1=O	-1.4	0.603	-3.7	1.9	3.3	i	-1.4
O=[N+]([O-])c1ccc(NCc2ccccn2)nc1	-4.4	0.67	4.2	10.1	-10.8	i	1.9
CCc1ccccc1NC(=O)CNC(=O)c1ccc(OCc2cn3ccccc3n2)cc1	-2.9	0.652	4.7	1.5	-2.3	i	13.9
O=C(CSc1nnnn1-c1cccc2ccccc12)Nc1ccc(C(=O)O)cc1	0.6	0.673	-1.8	-0.3	-11.0	i	-5.0
CNCc1c(OCc2ccc(F)cc2)ccc2ccccc12	4.2	0.639	7.6	3.8	.	.	-2.8
c1ccc2c(c1)ccc1ncccc12	-3.1	0.627	1.0	-3.3	-13.7	i	-8.4
COc1c(C)cc(C(=O)C2CCCN(C(=O)c3cc(C)nc(C)n3)C2)cc1C (centres undefined)	-0.1	0.713	-8.9	3.8	-4.5	i	4.2
COc1ccc(C(=O)NC(=S)Nc2ccc(CN3CCOCC3)cc2)cc1	3.1	0.666	2.4	1.0	10.2	i	3.1
CCOc1nc(N2CCOCC2)nc(N2CCOCC2)n1	3.8	0.729	-4.4	1.4	-4.3	i	-22.1
O=C(NC(=S)Nc1ccccc1Cl)c1ccco1	1.7	0.693	-2.8	0.8	0.2	i	-7.3
O=C(CN1C2CCCC1CC(NC(=O)c1ccco1)C2)Nc1ccccc1C(F)(F)F (centres undefined)	3.8	0.701	-0.9	1.0	.	.	-6.4
CC1CCCCC1NC(=O)CSc1nncn1N (centres undefined)	-5.3	0.701	1.7	-0.2	-9.8	i	5.2
Cc1cc(F)ccc1NCc1cc2c(cc1[N+](=O)[O-])OCO2	-1.1	0.707	4.3	4.0	35.2	.	-5.9
CCCC(=O)NNC(=O)Nc1ccccc1	8.6	0.706	-1.7	4.3	-7.3	i	0.9
COc1ccc(C(C)NC(=O)C23CC4CC(CC(C4)C2)C3)cc1OC (centres undefined)	-0.1	0.716	4.9	1.0	-2.1	i	9.3
CCN(CC)c1ccc(NC(=O)Nc2ccc(C(C)=O)cc2)cc1	2.2	0.673	0.7	4.8	48.8	.	13.4
Cc1ccc(C(=O)Cn2c(C(=O)/C=C/c3ccccc3)nc3ccccc32)cc1	3.5	0.748	-2.1	0.1	1.6	.	13.8
COC(=O)c1c(C(=O)OC)c2cc(C(=O)c3ccccc3)ccn2c1Cl	2.6	0.767	-7.9	-40.9	-16.0	.	0.2
O=C1c2ccccc2C(=O)N1CCc1csc(-c2cccc(Cl)c2)n1	4.8	0.711	0.1	1.7	.	.	1.0
c1ccc(-c2c3ccccc3nc3[nH]c4ccccc4c23)cc1	-0.1	.	-1.5	-29.5	-9.5	.	12.0
CCOC(=O)c1sc(=S)n(-c2ccccc2)c1C	-1.5	0.649	4.3	2.8	-2.8	i	-3.4
O=C(OCc1ccc(Br)cc1)c1cccc(S(=O)(=O)N2CCCC2)c1	-0.7	0.692	2.8	-2.1	2.5	i	0.4
O=C(O)c1ccc(COc2ccccc2Cl)cc1	1.0	0.632	-1.1	1.7	-2.7	.	10.0
CC(NC(=S)NC(=O)c1ccccc1Br)c1ccccc1 (centres undefined)	0.8	0.694	-4.9	4.4	-4.6	i	-2.8
CCN(CC(=O)Nc1ccc(OC)cc1)CC(=O)Nc1sc2c(c1C(=O)OC)CCCC2	3.1	0.683	.	-1.8	.	i	3.1

Some of the compounds tested; rates above refer to the full screens.
